Env fusion inh = inhibitors of HIV Env-mediated cell fusion; AID 651610; HeLa-JRFL Env/CEM21 cell fusion, luciferase; inhibition, % at 12.3 µM; hit rate 1.1% among 360,000;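 active = mean replicate inhibition score of at least 50 and every replicate individually at or above 50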;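 also: 0% = plate neutral controls and 100% = maraviroc near 300 nM; one replicate is shown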
PABP FP inh = PABP-poly(A) binding inhibition; inhibition, % at 35 µM; P11940; PABP-poly(A) RNA binding, fluorescence polarization; hit rate 1% among 290,000; AID 2014;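 active = 50% or more with normal probe brightness, or confirmed in later tests; about a fifth of its hits are not listed in these tables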;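 also: calls also rest on retests at 20 µM and on dose response follow-up; controls were probe without protein and protein plus probe with vehicle; some compounds called inactive have numbers as strong as hits; many hits fall short of the cut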
MT1-MMP act inh = MT1-MMP (human) activation inhibition | hit rate 0.061% among 360,000 | GFP/RFP ratio change, % at 20 µM | P50281 | AID 651647 | HT1080 RFP-PRO-GFP cells, GFP/RFP ratio fluorescence, overnight; percent of plate control window, DMSO zero;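 active = GFP/RFP ratio change of at least 30% with cell ATP level not reduced by more than half and red fluorescence within 50% of control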; also: strong numbers were not always called active
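Assay system: RFP-PRO-GFP reporter HT1080 cells; read-out basis: GFP/RFP fluorescence ratio; benchmarks: DMSO wells and RFP-L50D-GFP cells; doses: 20 µM single dose, 1% DMSO; schedule: overnight cell settling, then overnight compound exposure, 37 °C, 5% CO2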
UUG fidelity = alters start codon recognition fidelity in yeast. hit rate 0.13% among 350,000. activity score, % at 18.7 µM. S. cerevisiae UUG-firefly luciferase reporter, luminescence/redox ratio;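 active = replicate mean at a twofold rise or more, about +100% in these data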;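 also: firefly luciferase made from a UUG start codon reports start codon fidelity; reporter light over untreated wells divided by growth signal over untreated wells; some hits fall short of that in this replicate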
eIF4H inh = inhibitors of RNA binding by human eIF4H; inhibition, % at 35 µM; AID 2012; eIF4H fluorescence polarization binding assay; hit rate 0.94% among 290,000;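 active = 50% or more with normal probe brightness, or confirmed in later tests; about a fifth of its hits are not listed in these tables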;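 also: calls also rest on retests at 20 µM and on dose response follow-up; 0% = protein and probe with vehicle and 100% = probe without protein; strong numbers were not always called active; many hits fall short of the cut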
CSC inhib = cancer stem cell inhibition. cancer stem cell-like cells viability, luminescence. inhibition, % at 7.5 µM. hit rate 1.1% among 300,000;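 active = mean at 75% or more and at least half the replicates too; tested in HMLE shEcad cells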;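 also: 0% = median of negative and 100% = median of positive control wells; the first replicate is given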
Rce1 inh = yeast Ras-converting enzyme inhibition; yeast membranes, quenched prenylated peptide cleavage fluorescence; hit rate 0.27% among 290,000; Q03530; AID 2563; calls only;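 active = fall in fluorescence gain of 50% or more versus controls, with final raw signal at or below 3038400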;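 also: plate controls were neutral control wells for no effect and wells lacking membranes for full effect; tested at 10 µM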
Target sequence (Q03530 whole entry, looked up): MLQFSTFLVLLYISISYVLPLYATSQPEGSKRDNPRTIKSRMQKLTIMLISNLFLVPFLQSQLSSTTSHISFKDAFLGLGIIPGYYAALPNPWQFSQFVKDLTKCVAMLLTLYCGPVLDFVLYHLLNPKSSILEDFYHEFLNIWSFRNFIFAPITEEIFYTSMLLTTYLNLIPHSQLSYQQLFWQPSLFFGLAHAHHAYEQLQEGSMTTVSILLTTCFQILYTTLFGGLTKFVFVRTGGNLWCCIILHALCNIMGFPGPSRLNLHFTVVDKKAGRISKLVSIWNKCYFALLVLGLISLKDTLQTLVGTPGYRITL
eIF4H inh retest = also measured in eIF4H inh; calls as there; inhibition, %; compound at 20 µM; confirmation average;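 mean of two retest wells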
PABP FP inh retest = recorded beside PABP FP inh, whose call it bears; inhibition, %; compound at 20 µM; confirmation repeats;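 mean of two retest wells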
MT1-MMP act inh RFP = also measured in MT1-MMP act inh; calls as there; RFP signal change, %; measured here: RFP expression control read;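 0 = vehicle wells; hits needed this value within 50% of zero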
The depositor's hits bear a star; i = inactive; x = not tested or not shown. A portion of the library (hit frequency here may not be typical).

SMILES | Env fusion inh | PABP FP inh | MT1-MMP act inh | MT1-MMP act inh RFP | UUG fidelity | eIF4H inh | CSC inhib | Rce1 inh | others
CC1CCCN(Cc2c(O)ccc3c(=O)c(-c4ccc(Cl)cc4)coc23)C1 (configuration not stated) | 11 | -3 | -6 | -4 | -7 | -6 | x | i
CC1CN(c2ncc(/C=N/NC(=O)c3ccccc3O)s2)CC(C)O1 (configuration not stated) | 20 | 4 | 6 | 3 | -18 | 2 | -2 | i
COc1ccccc1N1CCN(c2nc(C)cc(C)c2C#N)CC1 | 10 | 6 | -1 | 2 | 3 | -3 | 5 | i
COc1ccc(OC)c(NC2c3ccccc3C(=O)N2Cc2ccc3c(c2)OCO3)c1 (configuration not stated) | -10 | 0 | -6 | -3 | -8 | -6 | 6 | i
CC(NC(=O)c1cccc(Cl)c1)C1CC2CCC1C2 (configuration not stated) | 21 | 2 | 1 | 0 | -14 | 6 | 5 | i
Cc1ccc(Cl)cc1N1C(=O)CC(C)(C)CC1=O | 8 | 7 | 1 | -3 | -10 | -2 | x | i
Oc1nc(Nc2ccc(F)cc2)sc1/C=C1\C=Nc2ccccc21 | -19 | 8 | -10 | -5 | x | 3 | 66 | i
O=C(Nc1ccccc1C(=O)O)c1cccc(C(=O)Nc2ccccc2C(=O)O)c1 | -12 | 46 | 0 | -1 | 3 | 18 | -21 | i
CCc1noc(C)c1C(=O)N1CCN(S(=O)(=O)c2ccc(C(C)C)cc2)CC1 | x | x | 0 | -3 | 3 | x | 55 | i
COc1ccccc1CC(=O)Nc1ccc(OC)c(OC)c1 | x | -6 | 5 | 2 | -4 | -11 | -6 | i
CCOC(=O)c1cc(C)n(-c2ccc(Cl)cc2)c1C | 5 | 7 | 1 | -2 | x | 3 | -11 | i
COc1ccc(Cl)cc1NC(=O)c1cccc(N2C(=O)C3CC=CCC3C2=O)c1 (configuration not stated) | 2 | -4 | 6 | -2 | -22 | -6 | -7 | i
CCC(C)n1c(=N)c(C#N)cc2c(=O)n3cc(C)ccc3nc21 (configuration not stated) | 5 | 28* | -3 | 0 | x | 58* | 40 | i | eIF4H inh retest=74*;PABP FP inh retest=67*
CCCc1nc2ccccc2c(=O)n1/N=C/c1ccc(O)cc1 | x | 2 | -4 | -4 | -22 | -2 | 2 | i
CCOc1ccc(NC(=O)CN(c2ccc(OC)cc2)S(C)(=O)=O)cc1 | x | -4 | -2 | 0 | -7 | 2 | 6 | i
CC(=O)C[C@H](O)CC(=O)[C@H]1OC(=O)CCCCCCCCc2ccccc21 | 4 | x | -23 | -3 | 9 | x | x | x
COc1ccc(S(=O)(=O)N2CCCC(C(=O)Nc3ccc(NC(=O)c4ccccn4)cc3)C2)cc1 (configuration not stated) | -64 | -3 | -13 | -8 | 6 | -5 | 7 | i
Cc1nn(-c2ccccc2)c2sc(C(=O)c3c(N)n(C)c(=O)n(C)c3=O)cc12 | x | -10 | -1 | -7 | x | -2 | 5 | i
CN(c1ccc(C(=O)NCCSCc2ccccc2)cc1)S(=O)(=O)c1ccccc1 | x | -5 | 3 | -2 | x | -9 | -5 | i
COc1ccc(N2C(=O)NC(NS(=O)(=O)c3ccc(Cl)cc3)(C(F)(F)F)C2=O)cc1 (configuration not stated) | -5 | 0 | 4 | 3 | -3 | 3 | -11 | i
COC(=O)C1C(=O)c2c([nH]c(C(=O)OC3CCCC3C)c2C)CC1C (configuration not stated) | -127 | -2 | -3 | -9 | -15 | 6 | 25 | i
COc1ccc(/C=C/c2onc(C)c2S(=O)(=O)N2CCC(C(=O)N3CCCCCC3)CC2)cc1 | 4 | -2 | 0 | -13 | -20 | -7 | 51 | i
CCOc1ccccc1NC(=O)CSc1nc(=O)n(CCN2CCOCC2)c2c1CCCC2 | 4 | x | -4 | 0 | 0 | x | -8 | i
O=C(Cn1cnc2scc(-c3ccccc3)c2c1=O)N1CCOCC1 | x | -8 | -3 | 2 | -7 | -12 | -16 | i
O=Cc1cn(-c2ccccc2)nc1-c1cc2ccccc2oc1=O | x | 4 | -3 | -2 | 3 | -3 | x | i

Next part, overlapping the part above by 4 compounds.
SMILES | Env fusion inh | PABP FP inh | MT1-MMP act inh | MT1-MMP act inh RFP | UUG fidelity | eIF4H inh | CSC inhib | Rce1 inh | others
COc1ccc(/C=C/c2onc(C)c2S(=O)(=O)N2CCC(C(=O)N3CCCCCC3)CC2)cc1 | 4 | -2 | 0 | -13 | -20 | -7 | 51 | i
CCOc1ccccc1NC(=O)CSc1nc(=O)n(CCN2CCOCC2)c2c1CCCC2 | 4 | x | -4 | 0 | 0 | x | -8 | i
O=C(Cn1cnc2scc(-c3ccccc3)c2c1=O)N1CCOCC1 | x | -8 | -3 | 2 | -7 | -12 | -16 | i
O=Cc1cn(-c2ccccc2)nc1-c1cc2ccccc2oc1=O | x | 4 | -3 | -2 | 3 | -3 | x | i
Cc1cc(=O)[nH]c(SCC(=O)Nc2ncc(S(=O)(=O)c3ccc([N+](=O)[O-])cc3)s2)n1 | 18 | 9 | 3 | -2 | x | 5 | -12 | i
O=C1c2ccccc2C(=O)N1CCCCN(C(=O)c1cc2ccccc2oc1=O)c1ccc(F)cc1F | -2 | -4 | -9 | -7 | x | 0 | -3 | i
CCn1c2ccccc2c2cc(NC(=O)CNCC3CCCO3)ccc21 (configuration not stated) | 13 | 18 | -3 | -4 | x | 2 | -13 | i
O=C(CSc1nnnn1C1CCCC1)NCc1ccccc1 | -35 | 7 | 3 | 2 | -4 | -1 | -10 | x
CCOc1ccc(NS(=O)(=O)c2ccc(C(=O)N3CCCC3)cc2)cc1 | -2 | x | -7 | -7 | x | x | 3 | i
CC(C)(C)c1ccc(OCC(O)CN2CCOCC2)cc1 (configuration not stated) | -9 | x | 2 | 2 | x | x | 5 | i
N#CC(C(O)c1ccccc1)N1CCOCC1 (configuration not stated) | -3 | x | -1 | 4 | -10 | x | x | x
Cc1cc(OCc2nc(-c3cccnc3)no2)c(C)cc1Br | x | 36 | 0 | 0 | -14 | 1 | -13 | i
CCCC[C@@H](CNC)NC[C@H](NCCCCC1CCCCC1)C(C)C | 31 | -4 | 1 | 3 | 8 | 4 | -25 | i
CCCCn1c(N)c(N(CCOC)C(=O)C2CCN(C(=O)c3ccc(F)cc3)CC2)c(=O)[nH]c1=O | 8 | x | 3 | 5 | x | x | -8 | i
CCc1c(C(C)=O)oc2ccc3c(C)cc(=O)oc3c12 | -55 | 5 | -2 | -4 | -13 | -7 | -9 | i
COc1ccccc1C(=O)NC(=O)CSc1nncn1C(C)C | -14 | x | 2 | 5 | x | x | x | i
C#CCOCCOCCOCCNc1nc(N2CCN(C(=O)[C@H]([C@@H](C)CC)n3cc(CCCCN)nn3)CC2)nc(N2CCN(C(=O)[C@H](C)n3cc(CCC(=O)O)nn3)CC2)n1 | -11 | -4 | 0 | 6 | 6 | -3 | -3 | i
COc1ccccc1CCCNC(=O)C1CCC(=O)N(CCc2cccc(F)c2)C1 (configuration not stated) | x | -6 | -4 | 3 | 7 | 1 | 0 | i
Cc1ccc(C)c(-n2ccnc2SCC(=O)O)c1 | x | 4 | 7 | 10 | x | -1 | -11 | i
Cc1ccc(C(=O)COc2ccccc2C(=O)Nc2ccccc2)cc1 | 22 | -7 | -4 | -2 | -16 | -9 | -1 | i
COc1ccc(C(=O)Nc2ccnn2C2CCN(C(=O)C3CCOC3)CC2)cc1 (configuration not stated) | -176 | -5 | -1 | 0 | -18 | -10 | -1 | i
Cc1[nH]nc2c1C(c1ccc(O)cc1)C1=C(CC(C)(C)CC1=O)N2 (configuration not stated) | -23 | -15 | -4 | -5 | x | -3 | -11 | i
CN1CCN(S(=O)(=O)c2cccc(C(=O)Nc3sc4c(c3-c3nc5ccccc5[nH]3)CCCC4)c2)CC1 | -5 | -3 | -9 | -5 | x | -1 | x | i
COc1cc(NC(=S)N2CCC(C(N)=O)CC2)c(OC)cc1Cl | 4 | -3 | 1 | 2 | x | -10 | -11 | i
O=C(O)c1ccc(NC(=O)c2cccc(C(=O)Nc3ccc(C(=O)O)cc3)c2)cc1 | 26 | -5 | -3 | -2 | -10 | -8 | 0 | i
COc1nnc(-c2ccccc2)s1 | -20 | -9 | -4 | 2 | -16 | -5 | -10 | i
Cc1cc(OCC(=O)O)c2cccc(C)c2n1 | 20 | 3 | -1 | 1 | -9 | -6 | -19 | i
Cc1ccc(C)c(NC(=O)CCN2CCN(c3ccccc3F)CC2)c1 | 5 | 9 | -6 | -4 | -5 | -13 | -7 | i
CCOc1ccc(NC(=O)CN2CCc3cc4c(cc3C2)OCCCO4)cc1OCC | 2 | 4 | 5 | 3 | -18 | -9 | 6 | i
(next part)
SMILES | Env fusion inh | PABP FP inh | MT1-MMP act inh | MT1-MMP act inh RFP | UUG fidelity | eIF4H inh | CSC inhib | Rce1 inh | others
CSCCC(N=C(NS(=O)(=O)c1ccccc1)c1ccccc1)C(=O)O (configuration not stated) | -8 | -2 | 3 | 2 | x | -9 | 1 | i
CCC[n+]1c2ccccc2cc2ccccc21 | -3 | 67* | -5 | -3 | -15 | 0 | 6 | i | eIF4H inh retest=6;PABP FP inh retest=86*
CCCNC(=O)c1cc(-c2ccc3c(c2)OCO3)on1 | -35 | -9 | 2 | 4 | -51 | 6 | 34 | i
COc1ccc(S(=O)(=O)N2CCC(C(=O)N[C@H](C(=O)NCc3ccccc3)C(C)C)CC2)cc1 | -15 | x | 4 | 2 | -7 | x | x | x
Cc1ccc(C(c2nc3ccccc3[nH]2)n2c(-c3ccccc3)nc3ccccc32)cc1 (configuration not stated) | 58* | x | -3 | -17 | -24 | x | x | x
COc1ccc(S(=O)(=O)Nc2ccccc2C)cc1 | -17 | 0 | 2 | 3 | 4 | -7 | 21 | i
Cc1ccc(Cl)cc1NC(=O)C1CCCN(c2cnccn2)C1 (configuration not stated) | 16 | x | -2 | -2 | -24 | x | -21 | i
Cc1ccc(C(=O)CC(C(=O)O)n2ccc(C)n2)cc1 (configuration not stated) | 24 | -4 | -7 | -1 | -16 | 2 | -9 | i
COc1ccc(C)cc1NS(=O)(=O)c1ccc2c(c1)CCN2C(C)=O | 1 | -4 | 1 | -3 | 9 | -1 | 5 | i
Cc1nn(-c2ccccc2)c(N2CCCC2)c1/C=N/NC(=S)Nc1ccc(F)cc1 | 6 | x | -4 | -9 | -11 | x | 1 | i
Cc1ccc(C)c(C(C)NC(=O)C2CC=CCC2C(=O)O)c1 (configuration not stated) | x | x | 4 | 5 | -25 | x | -13 | x
CC1CCCCN1C(=O)CCS(=O)(=O)c1cccc2nonc12 (configuration not stated) | -4 | -1 | 2 | 4 | -15 | -2 | x | i
COc1cc(/C=C/C(=O)Oc2coc(CSc3ncccn3)cc2=O)cc(OC)c1OC | -2 | 13 | 4 | 6 | x | 14 | -7 | i
COc1ccc(-c2[nH]ncc2CN(C)CCCN2CCOCC2)cc1F | 2 | 0 | -1 | 4 | x | 0 | -15 | i
CCc1cc(Br)ccc1NC(=O)C1CCCO1 (configuration not stated) | -46 | -4 | 2 | 2 | -8 | -6 | -1 | i
O=C(Nc1ccc(Cl)c(Cl)c1)Nc1cc(S(=O)(=O)N2CCOCC2)ccc1N1CCCC1 | -5 | -8 | 6 | -7 | x | -4 | 32 | i
Cc1ccc(NCCCCO)cc1C | 4 | -12 | 4 | 4 | -9 | -4 | 11 | i
COc1ccc(C2CCCN2C(=S)Nc2c(C)cccc2C)cc1OC (configuration not stated) | 1 | -7 | 4 | 1 | -16 | -5 | -8 | i
CCOC(=O)c1ccc(S(=O)(=O)NC2CC2)cc1 | 16 | 0 | 0 | -3 | -12 | 6 | -9 | x
CCOc1ccc(S(=O)(=O)n2nnc3ccccc32)cc1C | x | 11 | x | x | x | -2 | 3 | i
CCCCCCCN1C2=NCCN2c2ccccc21 | 2 | -3 | -9 | -7 | -8 | -4 | 9 | i

Source: PubChem BioAssay
